FEN1 inhibitor = qHTS Assay for the Inhibitors of Human Flap endonuclease 1 (FEN1) | P39748 | Recombinant FEN1 flap cleavage, fluorescence, 15 min | Potency, µM (series often up to 114 µM), for inactives: at the highest dose activity change, negative = inhibition, usual class: inhibitors | 0.35% of 390,000 active | AID 588795, 2011; further: nearly all actives have a fitted effect of over 65% in size
Target sequence (P39748 whole entry, looked up): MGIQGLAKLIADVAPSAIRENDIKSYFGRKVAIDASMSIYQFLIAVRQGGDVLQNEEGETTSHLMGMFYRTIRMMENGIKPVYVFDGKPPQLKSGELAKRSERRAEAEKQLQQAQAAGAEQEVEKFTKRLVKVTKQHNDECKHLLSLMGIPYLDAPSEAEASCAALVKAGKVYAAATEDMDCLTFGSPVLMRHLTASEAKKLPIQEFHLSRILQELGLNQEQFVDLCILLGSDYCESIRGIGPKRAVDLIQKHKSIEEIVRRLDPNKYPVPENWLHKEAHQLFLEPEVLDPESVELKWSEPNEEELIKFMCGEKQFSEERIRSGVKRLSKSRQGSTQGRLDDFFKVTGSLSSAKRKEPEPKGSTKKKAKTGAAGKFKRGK
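Quantitative HTS format: each compound was titrated, incubated with 10 nM nuclease for 15 min at room temperature, then challenged with flap substrate at 50 nM final. Signal change over 15 min gave concentration–effect curves.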
N370S GC mod = qHTS Assay for Inhibitors and Activators of N370S glucocerebrosidase as a Potential Chaperone Treatment of Gaucher Disease; AID 2101, 2009; N370S GC spleen homogenate, 4MU-glucoside fluorescence; 0.092% of 330,000 active; Potency, µM (top dose mostly 59.4 µM), inactives show at the top dose activity change, negative = inhibition, usual class: inhibitors; Lysosomal acid glucosylceramidase (Homo sapiens), P04062;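 further: 0% = full enzyme activity and -100% = no enzyme basal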
* hit, by the source's call; u = inconclusive; x = not tested or not shown; & = joins results of further samples; [ ] = dose if it differs, or a comment. The call rests on the fitted dose curve; in most records, active means well fitted curve in the direction sought with a large enough effect; inconclusive means small, poorly fitted or top-dose-only effect, or another doubt; inactive means no such curve, though single readings can be large; an effect the other way counts as inactive or inconclusive. Unless noted, on the % scale 0 is the no-effect control and ±100 the full control effect; potency means the concentration at half of the fitted maximal effect. Not all compounds are listed, and most or all hits are left out here.

Structure | FEN1 inhibitor | N370S GC mod
O=C(Nc1ccccc1)c1cc2ccccc2c(=O)s1 | -2% | 14%
CCC1=NN2C(=N)/C(=C\c3cccn3-c3ccc(OC)cc3)C(=O)N=C2S1 | -29% | 6%
Cc1cc(C)nc(NS(=O)(=O)c2ccc(NC(=O)Nc3ccccc3F)cc2)n1 | 1% | -1%
Cc1cc(Nc2nc3ccccc3[nH]c2=O)n(-c2ccccc2)n1 | 0% | 7%
CN(C)Cc1c(O)ccc2occ(C(=O)c3ccccc3)c12 | 11% | 1%
CC1(c2nnc(-c3ccc(Cl)cc3)o2)CC(c2ccncc2)=NO1 (centres undefined) | 1% | 8%
COCCCNC(=O)CCCn1c(=O)c2cccn2c2ccccc21 | -5% | x
O=C1CC(=O)C(n2cncn2)C(c2ccc(Cl)cc2Cl)C1 (centres undefined) | 0% | 24%
Cc1cc(C)n2ncc(C(=O)NCCc3ccccc3)c2n1 | -5% | u
COc1cccc(OCc2cc(C(=O)NCCN3CCCCC3CO)no2)c1 (centres undefined) | 2% | -13%
C=CCSc1n[nH]c(-c2ccc(OC)cc2)n1 | -18% | 24%
O=C(CCC1N=C2c3ccccc3N=C(SCc3cccc(Cl)c3)N2C1=O)NCc1ccco1 (centres undefined) | -6% | 22%
CCOc1ccccc1NC(=O)CSc1nc2c([nH]c3ccccc32)c(=O)n1-c1ccccc1 | 0% | x
COc1cccc(C(=O)NC(=S)Nc2ccc3[nH]c(=O)[nH]c3c2)c1 | 2% | -1%
Cc1sc2ncn(CC(=O)NCCCC(=O)N3CCN(c4ccccc4F)CC3)c(=O)c2c1C | -1% | 5%
Cc1nc(S(=O)(=O)N2CCN(c3ccccc3F)CC2)cn1C | 6% | x
Cc1cccn2c(=O)c3cc(C#N)c(=NC(=O)c4cccs4)n(CC(C)C)c3nc12 | -16% | 6%
Cc1cc(C)c(NC(=O)Cn2c(=O)oc3cc(S(=O)(=O)N4CCCCCC4)ccc32)c(C)c1 | 16% | x
CCC(NS(=O)(=O)c1ccc(C)cc1)C(=O)N1CCN(c2ccccn2)CC1 (centres undefined) | -3% | 2%
CN(C)S(=O)(=O)c1cccc2nsnc12 | 2% | 11%
CCC(c1nnnn1Cc1ccc(OC)cc1)N1CCN(C(=O)c2ccco2)CC1 (centres undefined) | -6% | 3%
COC(=O)[C@@H]1C[C@@]2(O)[C@@H](O)[C@@H](O)[C@@H](O)C[C@H]2N1Cc1ccc(C(F)(F)F)cc1 | 17% | -4%&15%
COc1ccc(C(=O)N2CCC(n3nccc3NC(=O)C3CC3)CC2)cc1F | 1% | -3%
CC(=O)c1ccccc1NC(=O)COC(=O)/C(=C/c1ccccc1)n1nnnc1C | 3% | 4%
Cc1ccc(NC(=O)Cn2c(=O)n(Cc3nc(-c4ccccc4)no3)c(=O)c3cc4c(cc32)OCO4)c(C)c1 | -3% | x
O=S(=O)(NCCc1cn2ccccc2n1)c1ccc2c(c1)CCCC2 | -16% | 13%
CCc1ccc(NC(=O)Cn2c(=O)oc3cc(S(=O)(=O)N4CCOCC4)ccc32)cc1 | -3% | 2%
Cc1cc(C)cc(NC(=O)c2ccc(N3C(=O)C4CCCCC4C3=O)cc2)c1 (centres undefined) | -2% | -7%
COC(=O)N/N=C/c1ccc(OCCSc2ccc(Cl)cc2)c(OC)c1 | 11% | 9%
COc1ccc(Nc2nc(-c3cccnc3)nc3ccccc23)cn1 | -24% | u

Structure | FEN1 inhibitor | N370S GC mod
Cc1ccc(C(=O)N/C(=C/c2cccc([N+](=O)[O-])c2)C(=O)NC(C)C)cc1 | 1% | 0%
COc1ccc(N2CC(C(=O)Nc3nnc(SCC(=O)N4CCOCC4)s3)CC2=O)cc1 (centres undefined) | -5% | -8%
CC(=O)Cc1nsc(NC(=O)c2ccc(COc3ccccc3Cl)o2)n1 | -2% | -4%
COc1nccnc1NS(=O)(=O)c1ccc(N/C=C2\CCCCC2=O)cc1 | -11% | -19%
Cc1cn([C@H]2C=C[C@@H](CO)O2)c(=O)[nH]c1=O | 48%&2%[activator] | -14%&1%&-4%&1%&0%&3%
CC1=C(C(=O)OC2CCCCCC2)C(c2ccc(C)o2)C2=C(CCCC2=O)N1 (centres undefined) | -2% | 10%
Cc1ccc(CSC2=NCCN2S(=O)(=O)c2ccccc2)cc1 | -2% | 8%
Cc1ccc(S(=O)(=O)NCC(=O)OCC(=O)N(C)C2CCS(=O)(=O)C2)cc1 (centres undefined) | 7% | -12%
Cn1c(=O)c2c3c(sc2n2c(SCc4ccccc4)nnc12)CCCC3 | x | 9%
O=C(CCc1nc(-c2ccc(Cl)cc2)no1)NCc1ccccc1CN1CCOCC1 | -10% | x
COc1ccc(CNC(=O)COc2ccc(C)nc2[N+](=O)[O-])cc1 | -7% | -10%
CCN1C(=O)N(S(=O)(=O)c2ccc(C)cc2)[C@@H](c2ccccc2)C(C(=O)OC)=C1C | 1% | u
OC(CNCCc1ccc(Cl)cc1)COCc1ccco1 (centres undefined) | -8% | 17%
O=C(CSc1nc2ccsc2c(=O)n1CC1CCC(C(=O)O)CC1)c1ccc(Cl)cc1 (centres undefined) | u | 1%
Cc1nn(CC(=O)NCc2ccccc2)c(C)c1[N+](=O)[O-] | 2% | 19%
CCc1ccc(Oc2nc([N+](=O)[O-])nn2C)cc1 | 1% | 1%
CC(=O)c1ccccc1-c1csc2ncnc(Sc3nnnn3C)c12 | -6% | x
Nc1nc(COc2ccc(F)cc2)nc(N2CCCCC2)n1 | 9% | -6%
Cc1cc(C(=O)CCl)c(C)n1CCc1ccc(F)cc1 | 9% | 9%
O=C(NCC1CCN(Cc2cccc(F)c2)CC1)c1cc2ccc3cccnc3c2[nH]1 | 20% | x
O=C(Nc1ccccc1N1CCN(c2ccccc2)CC1)c1ccccc1 | 11% | 13%
COc1ccc(CNC(=O)C2CCN(C(=O)N(C)C)CC2)c(OC)c1 | -19% | 3%
CCOc1ccccc1C(=O)NCC(=O)NNC(=O)c1cccs1 | -10% | x
CSc1ccc(Cn2nnc(C(=O)NCCc3ccc(Cl)cc3)c2N)cc1 | 2% | 6%
Cc1cccc(C)c1NC(=O)C(c1ccc([N+](=O)[O-])cc1)N1CCCCC1 (centres undefined) | -10% | 3%
CN(C)c1ccc(NC(=O)CSc2nc3ccccc3c(=O)n2CC2CCCO2)cc1 (centres undefined) | 2% | 0%
NC(=O)C1CCN(c2nc(-c3ccc4ccccc4c3)cs2)CC1 | -14% | x
CN(C)CCOC(=O)c1cccc(Br)c1 | -6% | 9%
Cc1ccc(S(=O)(=O)NC2c3cccc4cccc(c34)C2Sc2nc(C)cc(C)n2)cc1 (centres undefined) | -5% | 10%
CCOc1ccccc1N1CCN(C(=O)c2cccc(S(=O)(=O)N3CCOCC3)c2)CC1 | 0% | x

Single records, from the list above:
Cc1cc(C)cc(NC(=O)c2ccc(N3C(=O)C4CCCCC4C3=O)cc2)c1 (centres undefined) is entered as FEN1 inhibitor = -2%; N370S GC mod = -7%
Cc1cccc(C)c1NC(=O)C(c1ccc([N+](=O)[O-])cc1)N1CCCCC1 (centres undefined) is entered as FEN1 inhibitor = -10%; N370S GC mod = 3%

Continuation.
Structure | FEN1 inhibitor | N370S GC mod
O=C(CCS(=O)(=O)c1cccs1)Nc1ccc(C(=O)NCc2ccccc2)cc1 | -4% | 5%
COc1ccc(OC)c(S(=O)(=O)N(C)CC(=O)Nc2cc(Cl)ccc2OC)c1 | -3% | -11%
O=C(NCC(c1cccnc1)N1CCN(c2ccc(F)cc2)CC1)c1ccccc1 (centres undefined) | -2% | -10%
CC(=O)c1c(C)[nH]c(C(=O)CN2C(=O)NC3(CCCCC3)C2=O)c1C | -2% | -7%
Cc1ccc(S(=O)(=O)Cc2ccc([N+](=O)[O-])cc2)cc1 | 4% | 0%
COc1cc(CC(=O)Nc2cccc(S(=O)(=O)N(C)c3ccccc3)c2)cc(OC)c1OC | -24% | x
CCN(Cc1nc2ccccc2c(=O)[nH]1)Cc1cc(=O)oc2cc(OC)ccc12 | -2% | 19%
CN(C)/C=N/c1[nH]ncc1C#N | 6% | 2%
Cc1ccc(S(=O)(=O)N2CCC(C(=O)OCC(=O)N3CCc4ccccc43)CC2)cc1 | -1% | 16%[2.35 µM]
O=S(=O)(c1ccc(Br)s1)N1CCNCC1 | 16% | -12%
Fc1cccc(/C=N/Nc2ccccn2)c1 | 7% | -4%
N#Cc1nc(Cc2cccc3ccccc23)oc1N1CCOCC1 | -12% | -2%
CCCCCn1c(Br)nc2c1c(=O)n(CC(N)=O)c(=O)n2C | 10% | 0%
O=C(O)CC1NCCc2ccccc21 (centres undefined) | -1% | -1%
Cc1c(NC(=O)C(C)OC(=O)c2ccc(Br)o2)c(=O)n(-c2ccccc2)n1C (centres undefined) | 6% | -1%
CSc1ccc(/C=N/NC(=O)CN2CCN(Cc3ccccc3Cl)CC2)cc1 | -11% | 1%
CN(C)C(=O)N1CCCC(C(=O)NCc2ccccc2)C1 (centres undefined) | 2% | 6%
CCOc1ccc(CC(C(N)=O)C(N)=O)cc1CN(C)C | 8% | 26%
COC(=O)CNC(=O)CN1C(=O)N(c2ccccc2)C(N(O)C(=O)Nc2ccccc2)C1(C)C (centres undefined) | 9% | u
Cc1cccc(OCC(O)CN2CCN(C3CCCCC3)CC2)c1 (centres undefined) | 7% | 5%
O=C(NCC(c1cccs1)N1CCOCC1)c1cc(=O)[nH]c2ccccc12 (centres undefined) | -9% | 0%
Cc1ccc(S(=O)(=O)N2CCN(C(=O)COC(=O)COc3cccc(C(F)(F)F)c3)CC2)c(C)c1 | -19% | x
Cc1cc(NC(=O)CCn2c(=O)c3cccn3c3cccnc32)ccc1Br | 9% | x
Cn1c(COc2ccc(Cl)cc2)nc2ccccc2c1=O | -17% | 13%
O=C(Nc1ccccc1-c1ccccc1NC(=O)c1ccco1)c1ccco1 | 1% | 28%
Cc1nnc(NC(=O)CSc2nnc(CC(=O)Nc3ccccc3C)n2C)s1 | 9% | -8%
S=c1[nH]c(-c2ccccc2)cn1/N=C/c1ccccc1Br | 5% | 6%
Cc1ccc(-c2cc(-c3nnc(SCC(=O)NC(C)C(C)C)n3N)c3ccccc3n2)cc1 (centres undefined) | -12% | 24%
CC(=O)c1ccc(N2CCN(C(=O)C3CCN(S(=O)(=O)c4ccc(F)cc4)CC3)CC2)cc1 | -3% | x
COc1ccc(NC(=O)C(Cl)=C(Cl)Cl)cn1 | 11% | 10%

Looked up above:
Cn1c(COc2ccc(Cl)cc2)nc2ccccc2c1=O | N370S GC mod: 13%
Fc1cccc(/C=N/Nc2ccccn2)c1 | N370S GC mod: -4%
Cc1ccc(S(=O)(=O)Cc2ccc([N+](=O)[O-])cc2)cc1 | N370S GC mod: 0%

Following part.
Structure | FEN1 inhibitor | N370S GC mod
NC1(C(=O)O)C[C@@H](C(=O)O)[C@H](C(=O)O)C1 | x | -22%&-2%&-3%
CCOC(=O)c1c(-c2cccs2)csc1NC(=O)C(C)(C)C | 9% | -8%
Cc1cc(C)c(C#N)c(N2CCSCC2)n1 | -6% | 7%
CC(Sc1ncccn1)C(=O)Nc1ccc2c(c1)OCO2 (centres undefined) | -4% | x
COc1ccc(CC(=O)N2CC(C)CC(C)C2)cc1 (centres undefined) | -5% | 9%
COc1ccccc1N(C)S(=O)(=O)c1ccc(C(=O)NNC(=O)c2ccccc2O)cc1 | -3% | -13%
CCN(CC(=O)NCc1ccncc1)S(=O)(=O)c1ccc(OC)cc1 | 14% | 0%
CCOC(=O)c1cc(S(=O)(=O)N2CCN(c3ccc(OC)cc3)CC2)[nH]n1 | -2% | x
CN(C)CCN(C(=O)c1ccc(S(=O)(=O)N(C)c2ccccc2)cc1)c1nc2cc3c(cc2s1)OCO3 | 0% | -12%
CCCN(CCC)CCNC(=O)c1cc2c(-c3ccc(Cl)cc3)nn(C)c2s1 | u | -18%
COc1ccc(-c2nc(C)c(CCNC(=O)C(=O)Nc3ccccc3C#N)s2)cc1OC | -6% | x
O=C(CSc1ncccn1)N1CCN(Cc2ccccc2)CC1 | -6% | 3%
O=C(CSc1cn[nH]n1)Nc1ccccc1C(F)(F)F | 2% | 4%
O=C(NCC(c1cccs1)N1CCc2ccccc21)c1ccccc1 (centres undefined) | 12% | 13%
C=CCNC(=O)c1ccc(OC2CCN(S(=O)(=O)N(C)C)CC2)cc1 | -1% | 8%
O=C(Nc1ccccc1N1CCCC1)c1cc(=O)[nH]c2ccccc12 | 3% | 1%
CCc1ccc(N2Cc3ccccc3C2)cc1 | 6% | 0%
O=C(CSCc1cc(=O)n2nc(C3CC3)sc2n1)Nc1ccccc1Cl | -1% | -7%
Nc1c(Cl)cc(NC(=O)c2ccccc2C(=O)O)cc1Br | -1% | -3%
Cc1ccc(/C=C/C(=O)OCC(=O)Nc2cccc(S(=O)(=O)N(C)C)c2)o1 | -10% | 0%

Bioassay records deposited in PubChem BioAssay by National Center for Advancing Translational Sciences (NCATS).
